Rce1 inhib – blocks yeast Ras-converting enzyme | Q03530 | hit rate 0.27% among 290,000 | calls only | yeast membranes, quenched prenylated peptide cleavage fluorescence;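 active = fall in fluorescence gain of 50% or more versus controls, with final raw signal at or below 3038400; inconclusive = same 50% fall but final raw signal above 3038400; inactive = fall in fluorescence gain under 50%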;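 also: plate controls were neutral control wells for no effect and wells lacking membranes for full effect; tested at 10 µM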
Target sequence (Q03530 whole entry, looked up): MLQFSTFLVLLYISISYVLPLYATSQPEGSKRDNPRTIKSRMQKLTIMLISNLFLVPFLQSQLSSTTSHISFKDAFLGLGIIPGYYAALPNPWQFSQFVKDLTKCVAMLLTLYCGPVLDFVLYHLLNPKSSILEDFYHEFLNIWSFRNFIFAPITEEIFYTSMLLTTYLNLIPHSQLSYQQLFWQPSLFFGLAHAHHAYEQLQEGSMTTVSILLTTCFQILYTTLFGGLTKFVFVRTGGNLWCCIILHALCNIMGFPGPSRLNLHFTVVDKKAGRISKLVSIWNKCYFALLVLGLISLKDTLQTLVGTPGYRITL
Env fusion inh – inhibitors of HIV Env-mediated cell fusion; HeLa-JRFL Env/CEM21 cell fusion, luciferase; inhibition, % at 12.3 µM; hit rate 1.1% among 360,000; AID 651610;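 active = mean replicate inhibition score of at least 50 and every replicate individually at or above 50; inconclusive = only one of the two criteria met; inactive = mean below 50 and not all replicates reaching 50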;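 also: 0% = plate neutral controls and 100% = maraviroc near 300 nM; one replicate is shown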
eIF4H inh – inhibitors of RNA binding by human eIF4H; hit rate 0.94% among 290,000; inhibition, % at 35 µM; eIF4H fluorescence polarization binding assay; Q15056;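 active = 50% or more with normal probe brightness, or confirmed in later tests; inconclusive = above 50% with abnormal brightness, or retests that disagree; inactive = below 50% or failed in later tests; about a fifth of its hits are not listed in these tables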;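 also: calls also rest on retests at 20 µM and on dose response follow-up; 0% = protein and probe with vehicle and 100% = probe without protein; strong numbers were not always called active; many hits fall short of the cut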
MT1-MMP act inh – blocks activation of human MT1-MMP; P50281; HT1080 RFP-PRO-GFP cells, GFP/RFP ratio fluorescence, overnight; percent of plate control window, DMSO zero; GFP/RFP ratio change, % at 20 µM; hit rate 0.061% among 360,000;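 active = GFP/RFP ratio change of at least 30% with cell ATP level not reduced by more than half and red fluorescence within 50% of control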; also: strong numbers were not always called active
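system = RFP-PRO-GFP reporter HT1080 cells | dosing = 20 µM single dose, 1% DMSO | timing = overnight cell settling, then overnight compound exposure, 37 °C, 5% CO2 | read-out basis = GFP/RFP fluorescence ratio | controls = DMSO and RFP-L50D-GFP cell wells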
CSC inhib – cancer stem cell inhibition. cancer stem cell-like cells viability, luminescence. inhibition, % at 7.5 µM. hit rate 1.1% among 300,000. AID 2717;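 active = mean at 75% or more and at least half the replicates too; inconclusive = mean and replicates disagree; tested in HMLE shEcad cells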;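 also: 0% = median of negative and 100% = median of positive control wells; the first replicate is given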
PABP polyA inh – blocks human PABP binding to poly(A) RNA; fluorescence polarization; AID 2014; inhibition, % at 35 µM; hit rate 1% among 290,000; P11940;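 active = 50% or more with normal probe brightness, or confirmed in later tests; inconclusive = above 50% with abnormal brightness, or retests that disagree; inactive = below 50% or failed in later tests; about a fifth of its hits are not listed in these tables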;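 also: calls also rest on retests at 20 µM and on dose response follow-up; controls were probe without protein and protein plus probe with vehicle; some compounds called inactive have numbers as strong as hits; many hits fall short of the cut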
Yeast UUG start – modulators of start codon recognition fidelity in yeast | S. cerevisiae UUG-firefly luciferase reporter, luminescence/redox ratio | activity score, % at 18.7 µM | hit rate 0.13% among 350,000;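 active = replicate mean at a twofold rise or more, about +100% in these data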;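 also: firefly luciferase made from a UUG start codon reports start codon fidelity; reporter light over untreated wells divided by growth signal over untreated wells; some hits fall short of that in this replicate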
MT1-MMP act inh RFP – further read-out of MT1-MMP act inh, marked with its call; RFP signal change, %; measured here: RFP expression control read;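 0 = vehicle wells; hits needed this value within 50% of zero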
* = called active by the depositor; i = inactive; u = inconclusive; x = no result given. These rows are one share of the data. The share of hits here may be higher or lower than overall.

SMILES	Rce1 inhib	Env fusion inh	eIF4H inh	MT1-MMP act inh	MT1-MMP act inh RFP	CSC inhib	PABP polyA inh	Yeast UUG start
CC(OC(=O)c1ccco1)C(=O)NCc1ccc2c(c1)OCO2 (stereo not drawn)	i	-2	-6	0	3	x	-4	-29
CC(C)(C)c1ccc(NC(=O)COC(=O)c2ccc(CN3CCCC3=O)cc2)cc1	x	-2	x	3	7	-1	x	-17
O=S(=O)(c1ccccc1)C1(C2CC(c3ccccc3)=NO2)CC(O)C1 (stereo not drawn)	i	-6	-2	0	-2	-2	6	-21
CCCNC(=O)C1CCC(CNS(=O)(=O)c2ccc3c(c2)CC(C)N3C(C)=O)CC1 (stereo not drawn)	i	4	-28	3	-1	0	10	1
CNC(=O)C1CC(=O)N(Cc2ccc3c(c2)OCO3)C(=Nc2ccc(F)cc2)S1 (stereo not drawn)	i	x	6	1	3	4	11	x
N#Cc1ccccc1OCC(=O)N1CCN(S(=O)(=O)c2ccc(Cl)cc2)CC1	x	-2	x	1	-1	-7	x	-16
Cc1nc([N+](=O)[O-])cn1CC(=O)c1ccc(OC(F)(F)F)cc1	i	x	8	2	3	-10	4	-3
CC(C)CC(=O)NC(c1cccs1)c1ccc2cccnc2c1O (stereo not drawn)	i	x	10	6	-10	102*	-10	x
O=C(NC(=S)Nc1ccc(N2CCCC2)cc1)c1ccccc1[N+](=O)[O-]	i	-5	-2	8	2	-9	13	-9
CCN(CC)C(=O)c1ccc(COc2ccc(Cl)c(C)c2)o1	i	-5	8	-3	-21	6	-2	3
CCc1ccc(N2CC(C(=O)Nc3ccccc3F)CC2=O)cc1 (stereo not drawn)	x	-9	-6	-3	-4	-12	4	-1
O=[N+]([O-])c1cc(/C=N/OCc2c(Cl)cccc2Cl)ccc1N1CCOCC1	i	-11	-11	-1	-10	29	-4	-16
COC(=O)c1c(NC(=O)CSc2nnc(-c3ccco3)n2Cc2ccccc2)sc(C)c1C	i	x	-12	-2	-6	16	-10	-4
COc1ccccc1C1OCC(C)(C)CO1	x	14	x	2	0	x	x	-20
CCC(SC1=NCCS1)C(=O)Nc1ccc(S(N)(=O)=O)cc1 (stereo not drawn)	i	x	7	-1	9	3	-1	-19
CCNc1nc(Cl)nc(NCCOc2ccc(C)cc2)n1	i	-213	8	2	2	-14	-5	-15
CC(=O)Nc1c(C(=O)C2CC2)oc2ccccc12	i	x	0	0	1	x	-4	4
COc1ccc2c(c1OC)C(=O)N(c1nccs1)C2	i	x	-5	-11	-4	13	7	-19
CSCC(NS(=O)(=O)c1ccc(C)cc1)C(=O)O (stereo not drawn)	i	4	-11	-4	-2	x	14	x
Brc1ccc(-c2nc3ncccn3c2NC2CCCCC2)o1	i	-28	24	-15	-8	-21	38	-13

Next part (2 carried over from the part before).
SMILES	Rce1 inhib	Env fusion inh	eIF4H inh	MT1-MMP act inh	MT1-MMP act inh RFP	CSC inhib	PABP polyA inh	Yeast UUG start
CSCC(NS(=O)(=O)c1ccc(C)cc1)C(=O)O (stereo not drawn)	i	4	-11	-4	-2	x	14	x
Brc1ccc(-c2nc3ncccn3c2NC2CCCCC2)o1	i	-28	24	-15	-8	-21	38	-13
CCN(CC)Cc1cc(NC2=NS(=O)(=O)c3ccccc32)ccc1OC(=O)C(C)C	i	-15	2	2	4	x	-9	-8
Cc1ccc(C(=O)NNc2ncnc3c2cnn3C)cc1	i	-1	-13	-2	1	-7	-10	x
O=C(CSc1nccc(=O)[nH]1)c1ccco1	i	7	47	-5	-5	-2	14	x
O=C(Nc1ccc(F)cc1)N1CCCC(c2nc3c(nnn3Cc3ccccc3Cl)c(=O)[nH]2)C1 (stereo not drawn)	i	42	-7	1	-3	-10	4	x
O=[N+]([O-])c1cccc(C(=S)N2CCN(c3ccccc3)CC2)c1	i	-31	9	2	0	5	6	-17
Cc1ccc(-n2c(SCC(=O)NCC3CCCO3)nc3n[nH]c(C)c3c2=N)cc1Cl (stereo not drawn)	i	x	4	-1	-4	-15	6	-5
COc1ccc2c(CC(=O)OCC(=O)Nc3ccc4c(c3)OCO4)coc2c1	i	-6	-7	3	7	-3	-1	-9
CCC1/C(=N\O)CC(c2ccco2)NC1c1ccco1 (stereo not drawn)	i	3	6	11	8	-2	3	-8
O=C(COC(=O)c1cc([N+](=O)[O-])ccc1N1CCOCC1)c1ccc(Br)cc1	i	-25	x	2	-5	-6	x	-7
Cn1c(Cn2c3ccccc3c3ccccc32)n[nH]c1=S	i	4	8	9	-5	-11	0	-20
CC1=NN(C(N)=S)C(=O)C1N=Nc1ccccc1[N+](=O)[O-] (stereo not drawn)	x	u	x	2	3	x	x	-39
CN(C)CCCN1C(=O)C(O)=C(C(=O)c2cc3ccccc3o2)C1c1ccccn1 (stereo not drawn)	x	7	x	-1	4	x	x	-17
CCCc1cc(=O)oc2c(C)c(OCC(=O)Nc3ccc(CN4CCOCC4)cc3)ccc12	i	-6	-7	2	-2	-9	-1	-7
Cc1ccc(NC(=O)Cn2nnc3ccccc32)cc1	x	-33	4	0	0	-5	-1	-16
Cc1cc2cc3c(cc2nc1SCC(=O)Nc1nc(C)c(C)s1)OCO3	i	-40	-4	-8	3	-9	-5	-2
CC(=O)N1CCN(C(=O)CSc2nnc(C)n2-c2ccccc2)CC1	i	1	0	4	3	-5	5	-7
O=c1ccc(-c2ccccc2)nn1Cc1ccccc1F	i	-26	1	4	-9	x	-10	-9
C(=Nc1cccc2c(N=Cc3ccco3)cccc12)c1ccco1	i	x	u	-4	5	20	-5	x
CC(C)(O)c1cc(=O)sc2nc3ccccc3n12	i	-264	2	9	3	-1	29	-25
COc1ccc(C(=O)NC(=S)NNC(=O)c2ccncc2)cc1Br	x	-9	x	2	-2	x	x	-31
CN(C)S(=O)(=O)c1ccc(NC(=O)C2CC(=O)N(Cc3ccccc3Cl)C2)cc1 (stereo not drawn)	i	-3	x	-1	1	-3	x	x
OCC1CCN(Cc2nc(Cc3ccccc3Cl)no2)CC1	i	6	-10	2	4	-17	-5	x
C=CCc1ccccc1OCCn1nnc2ccccc21	x	17	6	2	-10	12	4	-16
C=CCSc1ncccc1C(=O)NCc1ccccc1	i	x	-10	1	-3	x	4	x
O=c1cc(N/N=C/c2ccccc2)[nH]c(=O)[nH]1	i	16	x	-1	-2	14	x	-10
COc1cc(OC)cc(-c2nc(-c3cccs3)no2)c1	i	-21	27	-2	-1	-2	5	x
O=C(c1cc2cc(F)ccc2[nH]1)N1CCN(Cc2ccc3c(c2)OCO3)CC1	i	9	-16	3	2	-11	-2	4
Cc1nc(C)c(C(=O)NNS(=O)(=O)c2ccccc2)s1	i	10	-2	0	0	-9	-2	-3
COCC1CCN(C(=O)c2ccc(OC)c(OC3CCN(C(C)C)CC3)c2)CC1	i	-2	0	-7	-3	x	-4	-12
N/C(=N\OC(=O)c1cnn(-c2ccccc2)c1C(F)(F)F)c1cc(C(F)(F)F)cc(C(F)(F)F)c1	i	23	-11	-2	-2	-18	-8	x
CC(C)NS(=O)(=O)c1ccc(CCC(=O)N2CCc3ccccc3C2)cc1	i	-6	3	5	2	-4	24	-2
CCCCN(CCCC)CCNC(=O)CN1C(=O)COc2ccc(S(=O)(=O)N3CCOCC3)cc21	i	-14	4	-4	-3	11	0	x
CC1CCC(C(C)C)C(OCC(O)CNC(C)(C)C)C1 (stereo not drawn)	i	8	-8	-3	-2	-5	3	x
CCCCn1c(N)c(N(CCOC)C(=O)COC(=O)CCOc2ccccc2C)c(=O)[nH]c1=O	i	x	x	1	-1	-2	x	-4
CCn1nc(CC(=O)Nc2nnc(CC(=O)N3CCCCC3)s2)c2ccccc2c1=O	i	x	-6	-4	6	x	-9	-17
O=C(Nc1cccc2ccccc12)N1CCN(Cc2ccccc2)CC1	i	x	-5	1	-2	15	9	4
Cc1onc(-c2c(F)cccc2Cl)c1C(=O)Nc1cccc(S(=O)(=O)N2CCOCC2)c1	x	-4	x	1	-3	5	x	-4
COC(=O)c1cc(C#N)c(Oc2cccc(C)c2C)nc1C	i	x	4	1	3	5	1	-9
CCN(CC(=O)NCc1cccs1)C(=O)c1ccc(S(=O)(=O)N(C)C)cc1	i	-6	-4	1	1	-7	11	x
COc1ccc(N2CCN(C(=O)c3cc4c(C)nc5ccccc5c4o3)CC2)cc1	i	-5	-4	-1	0	7	12	-20
O=C(Cc1c(Cl)cccc1Cl)Nc1cccnc1	i	-4	5	0	3	2	u	x
c1ccc2c(C[C@@H]3CNCCN3CCC34CC5CC(CC(C5)C3)C4)cccc2c1	x	4	x	-1	0	26	x	-2
CC(=O)Nc1ccc(-c2ccnc3c2CC(C(=O)NCc2ccco2)O3)cc1 (stereo not drawn)	x	-192	x	19	11	x	x	-14
O=C(CC[C@H]1O[C@@H](n2cnc3c(NC(=O)c4ccccc4)ncnc32)[C@H](O)[C@@H]1O)NCCCN1CCOCC1	x	5	x	2	2	x	x	-3
Cc1cccc2cc(CN(CC3CCCO3)C(=S)Nc3ccccc3)c(=O)[nH]c12 (stereo not drawn)	i	-7	-3	1	2	9	-11	-25
CC(C)n1ncc2c(C(=O)Nc3ccc(CC#N)cc3)cc(C3CC3)nc21	x	16	x	1	-3	x	x	-4
CC(OC(=O)CNC(=O)c1ccc2ccccc2c1)C(=O)NC1CCCCC1C (stereo not drawn)	i	-8	-12	-11	-4	2	-5	15
O=C(Nc1cc(S(=O)(=O)N2CCOCC2)ccc1Cl)c1ccncc1	x	18	x	-3	2	-1	x	-16
O=C(NC1CCCCC1)C(c1cccnc1)N(C(=O)c1csnn1)c1ccccc1F (stereo not drawn)	i	1	2	4	5	-4	-5	-1
Cc1ccc(C(=O)c2cnc3ccccc3c2-c2ccccc2)cc1	i	83*	-8	-5	-7	15	-3	1
NS(=O)(=O)c1ccc(CCNC(=O)CSc2ccsc2[N+](=O)[O-])cc1	i	7	31	-2	6	-2	-13	-18
Cc1ccccc1N(CC(=O)O)S(C)(=O)=O	i	x	2	1	0	-18	5	x
Cc1cc(Cl)c2oc(C(=O)N3CCN(c4cccc(C)n4)CC3)c(C)c2c1	i	-35	3	3	4	21	3	1
CC(C)CN(C(=O)CN1CCCCCC1)c1c(N)n(CC(C)C)c(=O)[nH]c1=O	x	8	8	-27	4	-9	-5	x
O=C(NC1CCCCCC1)c1ccc(CS(=O)(=O)Cc2ccccc2F)o1	i	1	-4	1	-2	-13	11	-5
COCCN1C(=O)N(c2cccc(OC)c2)C(=O)C1CC(=O)Nc1ccc(OC)cc1 (stereo not drawn)	i	-9	6	0	-1	1	0	-6
COc1cc(CN2CCNC(=O)C2CC(=O)N2CCCO2)cc(OC)c1 (stereo not drawn)	i	8	11	1	-3	-8	3	x
CCCCOCCCNC(=O)CCCOc1ccccc1	i	x	-7	1	8	1	2	x
CCO[C@H]1OC(C(=O)N2CCOCC2)=C[C@@H](c2coc3ccccc3c2=O)[C@@H]1CCCO	i	10	3	1	1	-6	-5	-21
COc1ccc2[nH]cc(/C=N/NS(=O)(=O)c3ccc(C)cc3)c2c1	i	11	-2	-4	-27	14	0	x
C=CCSc1nnc(-c2nnc(SCC=C)n2-c2ccccc2)n1-c1ccccc1	i	-15	-6	-6	-5	8	-1	-9
CN(CC(=O)Nc1cccc(F)c1)C(=O)c1cn(-c2ccccc2)nc1-c1ccc(F)cc1	x	x	x	5	-1	69	x	12
COc1cc(OC)c(OC)cc1CN1CCN(c2ccccc2OC)CC1	i	-42	2	-7	-1	-5	3	-10
